Screening data: PubChem BioAssay, several laboratories
INS promoter inh – TRM-6 insulin promoter activity inhibition; TRM-6 cells (human fetal islet line), insulin promoter-eGFP reporter, imaging; reporter expression induced with tamoxifen; inhibition, % at 2 µM; 130,000 compounds, 0.9% hits; AID 1273;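 active = inhibition above the mean plus 3 SD, with well images judged a real hit on visual review, cut at about 60% in these data, passing the limit was not always enough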
GALR2 agonist – activates the human galanin receptor 2; O43603; 140,000 compounds, 0.48% hits; activation, %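 (tested at 5 µM)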; AID 803; GALR2-expressing cells, agonist activation read-out;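 active = above mean plus 3 SD of all compounds, about 5% in these data, not always enough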;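 also: 0% = vehicle buffer wells and 100% = reference agonist at full effect; tested in CHO reporter cells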
Target sequence (O43603 whole entry, looked up): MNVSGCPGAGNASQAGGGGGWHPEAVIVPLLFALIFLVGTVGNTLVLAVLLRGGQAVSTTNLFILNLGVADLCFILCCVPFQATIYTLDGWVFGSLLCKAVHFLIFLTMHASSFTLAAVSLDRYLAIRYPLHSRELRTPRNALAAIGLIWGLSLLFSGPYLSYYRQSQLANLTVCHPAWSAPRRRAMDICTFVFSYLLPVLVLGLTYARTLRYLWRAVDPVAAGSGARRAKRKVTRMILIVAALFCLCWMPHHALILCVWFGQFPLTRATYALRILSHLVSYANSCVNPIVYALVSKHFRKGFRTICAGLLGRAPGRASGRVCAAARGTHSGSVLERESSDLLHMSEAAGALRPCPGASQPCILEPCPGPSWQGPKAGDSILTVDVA
PKD1 kinase inh – inhibitors of human PKD1 kinase; Q15139; PKD1 kinase fluorescence polarization assay; inhibition, %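 (about 10 µM by stock and volumes)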; 200,000 compounds, 0.056% hits; AID 797;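 active = inhibition of 50% or more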;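 also: controls were vehicle for no effect and a reference inhibitor for full effect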
RGS16-Gao – modulates binding between human RGS16 and Galphao; binding response (% of control), % at 10 µM; 220,000 compounds, 0.38% hits; AID 1441; bead-based flow cytometry RGS16-Galphao binding, fluorescence; actives lie on both sides;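 active = below 25% or above 175%, edge rows of some plates excepted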;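 also: Galphao activated by GDP with aluminum fluoride before binding; 100% = wells without compound and 0% = beads without RGS; some results beyond the cut were filed as inactive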
Target sequence (O15492 whole entry, looked up): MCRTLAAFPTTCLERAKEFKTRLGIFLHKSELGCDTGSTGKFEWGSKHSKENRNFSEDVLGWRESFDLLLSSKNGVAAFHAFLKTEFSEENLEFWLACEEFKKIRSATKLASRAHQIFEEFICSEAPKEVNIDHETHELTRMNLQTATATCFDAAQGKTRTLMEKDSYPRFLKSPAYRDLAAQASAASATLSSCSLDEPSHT
Target sequence (P09471 whole entry, looked up): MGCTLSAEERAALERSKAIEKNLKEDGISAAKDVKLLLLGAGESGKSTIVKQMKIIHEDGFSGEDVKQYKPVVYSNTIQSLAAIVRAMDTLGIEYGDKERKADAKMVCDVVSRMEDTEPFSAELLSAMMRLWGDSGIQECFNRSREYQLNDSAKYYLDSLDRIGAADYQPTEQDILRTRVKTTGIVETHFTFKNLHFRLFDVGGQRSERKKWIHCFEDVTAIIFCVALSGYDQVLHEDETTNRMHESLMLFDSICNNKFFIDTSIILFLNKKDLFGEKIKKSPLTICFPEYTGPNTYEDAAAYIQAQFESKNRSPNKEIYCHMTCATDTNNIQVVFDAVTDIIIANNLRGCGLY
HSV replic up – HSV replication enhancement. HSV replication augmentation in cells, fold increase. maximum fold increase. 220,000 compounds, 0.005% hits;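 active = peak rise of 1.5-fold or more in the series; tested in PC3 cells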;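 also: first round at 10 µM; read as green reporter fluorescence; hits show the peak of a series up to 25 µM; 1 = signal of infected wells without compound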
INS promoter inh cell count – second read-out of INS promoter inh, no call of its own (marks repeat the call); normalized cell count, %; measured here: cell count, toxicity; reference of the scale not given here;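 cells exposed to compound for 48 h; stained nuclei by imaging scaled within each plate; lower means fewer cells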
HSV replic up primary fold – further read-out of HSV replic up, marked with its call; fold increase; compound at 10 µM; measured here: primary screen fold increase 10 uM; tested in PC3 cells;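 GFP signal in the first replicate; 1 = infected wells without compound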
Numbers without * were called inactive; i = inactive; . = no result given.

SMILES	INS promoter inh	INS promoter inh cell count	GALR2 agonist	PKD1 kinase inh	RGS16-Gao	HSV replic up	HSV replic up primary fold
COC(=O)c1ccc2c(=O)n(C3CCCCC3)c(SCC#N)nc2c1	-11	74	0.1	3	98	i	0.73
O=S(=O)(Nc1ccc(N2CCOCC2)cc1)c1ccc(Cl)s1	24	143	-0.6	-2	6	i	0.98
Cc1ccc(C(=O)OCC(=O)N2CC(=O)Nc3ccccc32)s1	.	.	-3.6	-8	101	i	0.93
CN(C)S(=O)(=O)c1ccc(C(=O)NCC(=O)N/N=C/c2ccccc2)cc1	50	137	.	-2	103	i	0.97
CCn1c(Cn2nnc(-c3ccccc3)n2)nnc1SCC(=O)Nc1cccc(C)c1C	-71	110	-4.2	14	99	i	0.93
O=C(O)c1ccc(N/N=C/C2=Cc3ccccc3OC2)cc1	.	.	.	.	100	i	0.9
Cn1c(SCC#N)nc2ccccc2c1=O	.	.	.	.	100	i	0.83
COc1ccc(-c2c(C#N)c(SCC(=O)c3cc4ccccc4oc3=O)nc(C)c2C(=O)Nc2ccccc2)cc1	.	.	-1.4	6	97	i	0.99
Fc1ccc(CSc2nc3ccccc3[nH]2)cc1	65	221	-0.6	2	90	i	0.99
Cc1ccc(C(=O)ON=C2CCN(S(=O)(=O)c3ccccc3)CC2)cc1	33	70	-1.1	-16	105	i	0.9
CCCCNC(=O)CN(CCc1ccccc1)S(C)(=O)=O	-10	114	-1.9	-3	149	i	0.85
CCCN(CCC)CCCNC(=O)c1ccc2c(c1)N(CC)C(=O)c1ccccc1S2=O (stereo unspecified)	-62	55	-1.9	1	143	i	0.8
COC(=O)C(NC(C)=O)(Nc1sc2c(c1C(N)=O)CCCC2)C(F)(F)F (stereo unspecified)	-13	140	-0.4	-3	65	i	0.71
CCC(C)[C@@H](C(=O)Nc1ccc2c(c1)OCO2)N1Cc2ccccc2C1=O (stereo partly specified)	.	.	-2.4	11	105	i	0.81
OCCC1CN(Cc2cccs2)CCN1Cc1ccccc1 (stereo unspecified)	-90	137	.	-1	102	i	1.1
O=C(O)COc1ccccc1/C=C1\SC(=S)N(c2cccnc2)C1=O	.	.	.	.	99	i	0.97
CCC(=O)N(Cc1ccco1)c1nc(-c2ccccc2)cs1	-136	67	-0.5	6	96	i	1
COCCn1c(SCC(=O)Nc2cccc(C)c2)nnc1C(C)C	55	64	-1.5	-2	100	i	1.1
COc1ccc(C(=O)CSc2nnc(CNc3ccc(F)cc3)o2)cc1	19	131	.	2	103	i	0.97
COc1ccccc1OCC(=O)OCC(=O)NCCN1C(=O)CSC1=O	-53	95	-1.2	-3	105	i	0.73
Cn1c(=O)cc(OCCCC(=O)Nc2ccccn2)c2ccccc21	.	.	-2.4	-5	92	i	0.74
CCc1ccc(OCCNC(=O)OCc2ccccc2)cc1	33	102	-0.5	12	102	.	.
CSCCC(NS(=O)(=O)c1ccc2c(c1)oc(=O)n2C)C(=O)NC1CCCCC1 (stereo unspecified)	.	.	-1.2	9	102	i	0.77
Nc1ccccc1Oc1c(F)c(F)c(Oc2ccccc2N)c(F)c1F	.	.	.	4	107	i	0.96
N#Cc1c2n(c(=S)n(-c3ccc(F)cc3)c1=O)CCCCC2	.	.	.	-6	95	i	0.89
SMILES	INS promoter inh	INS promoter inh cell count	GALR2 agonist	PKD1 kinase inh	RGS16-Gao	HSV replic up	HSV replic up primary fold
CCCCCCCCc1nnc(N)s1	.	.	.	.	102	i	0.93
CCCCNC(=O)CNC(=S)N(Cc1ccccc1)Cc1cccs1	-25	115	.	1	102	i	0.85
COc1ccc(OCCC(=O)OCC(=O)NC2CCCCCCC2)cc1	.	.	.	-5	103	i	1
Cc1cccnc1NC(=S)NC(=O)/C=C/c1ccco1	-28	123	-0.2	2	98	i	1
CC(C)c1nc(NCCN2CCOCC2)c(C#N)c2c1COC(C)(C)C2	.	.	-2.3	-5	104	i	1
CCC(C)(C)n1nnnc1CN1CCN(c2ccc(OC)cc2)CC1	.	.	.	5	99	i	1
CN(C(=O)c1cccs1)c1ccc(OCC(=O)Nc2ccc(C(=O)O)cc2)cc1	.	.	.	.	101	i	1.1
Cc1ccc(S(=O)(=O)N2CCCCC2C(=O)N2CCN(C)CC2)cc1 (stereo unspecified)	-22	93	-3.0	-6	101	i	1
CC(Sc1cccc2cccc(C(=O)O)c12)C(=O)O (stereo unspecified)	-94	85	-1.7	-13	103	i	1.1
O=C(c1cnc2ccccn2c1=O)N1CCc2ccccc21	.	.	-1.0	0	102	i	1
COc1cc(C)c(CNC2CCCCC2)cc1C	-10	120	-1.1	-5	99	i	0.87
Cc1cc(C(=O)N/N=C/c2ccc(O)c([N+](=O)[O-])c2)c(C)n1-c1ccc(F)cc1	36	43	1.2	-2	101	i	0.94
O=C(O)CSc1nc2ccccc2n1C1CCCCC1	.	.	.	-7	99	i	1
CCN(c1cccc(C)c1)S(=O)(=O)c1ccc2c(c1)CCN2C(C)=O	17	126	0.6	-1	101	i	0.91
CCOC(=O)c1ccc(N2CCCCC2)c(NS(=O)(=O)c2cccc(C(F)(F)F)c2)c1	.	.	.	.	102	i	1.2
CCCCNC(=O)C(NS(=O)(=O)c1cccc2nsnc12)c1ccccc1 (stereo unspecified)	0	105	-1.5	-12	102	i	0.91
O=C(NC1CCCC1)C(c1ccsc1)N(C(=O)Cc1cccs1)c1ccccc1 (stereo unspecified)	27	98	-3.4	-12	104	i	0.99
CCn1c(Sc2ccc(N)cc2Cl)nc2ccccc21	-83	107	-0.8	-1	98	i	0.98
COc1ccc(-c2cc(-c3ccccc3)c(C#N)c(S(C)(=O)=O)n2)cc1	57	150	-2.0	-2	98	i	0.54
COCCOC(=O)C1=C(C)NC(=S)NC1/C=C/c1ccccc1 (stereo unspecified)	14	148	0.0	-1	102	i	0.92
Cc1csc(NC(=O)COc2ccc3c(C)cc(=O)oc3c2)n1	13	126	-1.8	1	101	i	0.98
O=C(COC(=O)/C=C/c1cccs1)NC1CC1	.	.	.	-4	100	i	0.95
CCCCCSc1nc2c(cnn2-c2ccccc2)c(=O)[nH]1	52	142	-2.5	-2	109	i	0.98
O=c1cc(CSc2nnnn2-c2ccccc2)[nH]c2[nH]n(-c3ccccc3)c(=O)c12	11	84	0.0	3	105	i	1
O=C(Nc1nc2cc3c(cc2s1)OCCO3)c1cccs1	.	.	.	.	103	i	1

17 of these compounds, reformatted.
Values run as follows: INS promoter inh	INS promoter inh cell count	GALR2 agonist	PKD1 kinase inh	RGS16-Gao	HSV replic up	HSV replic up primary fold
- CCCCCCCCc1nnc(N)s1
    .	.	.	.	102	i	0.93
- CCCCNC(=O)CNC(=S)N(Cc1ccccc1)Cc1cccs1
    -25	115	.	1	102	i	0.85
- COc1ccc(OCCC(=O)OCC(=O)NC2CCCCCCC2)cc1
    .	.	.	-5	103	i	1
- Cc1cccnc1NC(=S)NC(=O)/C=C/c1ccco1
    -28	123	-0.2	2	98	i	1
- CC(C)c1nc(NCCN2CCOCC2)c(C#N)c2c1COC(C)(C)C2
    .	.	-2.3	-5	104	i	1
- CCC(C)(C)n1nnnc1CN1CCN(c2ccc(OC)cc2)CC1
    .	.	.	5	99	i	1
- CN(C(=O)c1cccs1)c1ccc(OCC(=O)Nc2ccc(C(=O)O)cc2)cc1
    .	.	.	.	101	i	1.1
- Cc1ccc(S(=O)(=O)N2CCCCC2C(=O)N2CCN(C)CC2)cc1 (stereo unspecified)
    -22	93	-3.0	-6	101	i	1
- CC(Sc1cccc2cccc(C(=O)O)c12)C(=O)O (stereo unspecified)
    -94	85	-1.7	-13	103	i	1.1
- O=C(c1cnc2ccccn2c1=O)N1CCc2ccccc21
    .	.	-1.0	0	102	i	1
- COc1cc(C)c(CNC2CCCCC2)cc1C
    -10	120	-1.1	-5	99	i	0.87
- Cc1cc(C(=O)N/N=C/c2ccc(O)c([N+](=O)[O-])c2)c(C)n1-c1ccc(F)cc1
    36	43	1.2	-2	101	i	0.94
- O=C(O)CSc1nc2ccccc2n1C1CCCCC1
    .	.	.	-7	99	i	1
- CCN(c1cccc(C)c1)S(=O)(=O)c1ccc2c(c1)CCN2C(C)=O
    17	126	0.6	-1	101	i	0.91
- CCOC(=O)c1ccc(N2CCCCC2)c(NS(=O)(=O)c2cccc(C(F)(F)F)c2)c1
    .	.	.	.	102	i	1.2
- CCCCNC(=O)C(NS(=O)(=O)c1cccc2nsnc12)c1ccccc1 (stereo unspecified)
    0	105	-1.5	-12	102	i	0.91
- O=C(NC1CCCC1)C(c1ccsc1)N(C(=O)Cc1cccs1)c1ccccc1 (stereo unspecified)
    27	98	-3.4	-12	104	i	0.99

3 entries from above, ordered by length of the SMILES, ascending.
SMILES	INS promoter inh	INS promoter inh cell count	GALR2 agonist	PKD1 kinase inh	RGS16-Gao	HSV replic up	HSV replic up primary fold
CCn1c(Sc2ccc(N)cc2Cl)nc2ccccc21	-83	107	-0.8	-1	98	i	0.98
CCN(c1cccc(C)c1)S(=O)(=O)c1ccc2c(c1)CCN2C(C)=O	17	126	0.6	-1	101	i	0.91
CN(C(=O)c1cccs1)c1ccc(OCC(=O)Nc2ccc(C(=O)O)cc2)cc1	.	.	.	.	101	i	1.1

Later entries
SMILES	INS promoter inh	INS promoter inh cell count	GALR2 agonist	PKD1 kinase inh	RGS16-Gao	HSV replic up	HSV replic up primary fold
O=C1CCCc2cc3c(cc21)CC1(C3)Cc2cc3c(cc2C1)C(=O)CCC3	.	.	.	.	108	i	0.83
COC(=O)c1sc(=S)n(-c2ccccc2)c1N	.	.	0.5	-6	82	i	0.8
COc1cccc(CC(=O)NCC2COc3ccccc3O2)c1OC (stereo unspecified)	.	.	-1.6	1	103	i	0.98
O=C(Nc1nc2c(s1)CCCC2)c1ccc(Br)o1	-15	90	-1.3	-3	102	i	1
CC(=O)NCCc1nc2ccccc2n1CCOc1ccccc1C	.	.	.	.	100	i	1
CSc1nc(NC(C)=O)nc(C)c1Br	44	111	-0.8	0	59	i	0.91
Cn1c(SCc2cccc(Br)c2)nnc1-c1ccccn1	.	.	.	.	89	i	1
O=c1[nH]c(CSc2ccccc2)nc2c1oc1ccccc12	.	.	.	.	102	i	1.2
Cc1cc(C)n2nc(CC(=O)NCc3ccc(F)cc3)nc2n1	7	120	-1.0	10	98	i	0.95
CCN(CC)CCCNC(=O)C1c2cc(OC)c(OC)cc2C(=O)N(C)C1c1cccs1 (stereo unspecified)	6	79	-1.9	-2	454	i	0.9
COc1ccc(/C=N/Nc2ncccc2[N+](=O)[O-])c(OC)c1	.	.	.	-6	85	i	0.99
Cc1ccc(NC(=O)C2CCCN2C(=O)NCc2ccccc2)cc1 (stereo unspecified)	.	.	.	1	104	i	1.2
O=C(NCCC1=CCCCC1)c1cc(-c2ccccn2)nc2ccccc12	-20	136	.	-4	105	i	0.85
O=C(Nc1ccc(F)cc1)Nc1sccc1-c1nc2ccccc2s1	.	.	.	.	101	i	1.1
S=C(Nc1cccc(Cl)c1)N(CCCN1CCCC1)Cc1cccn1Cc1ccc(Cl)cc1	-60	115	.	2	109	i	0.61
O=C(c1ccccc1)N1CCCC(c2nc3c(nnn3Cc3ccccc3)c(=O)[nH]2)C1 (stereo unspecified)	-55	105	-0.2	-2	101	i	0.97
CCOC(=O)C1(C)NC(c2ccc(N(C)C)cc2)C2C(=O)N(CC)C(=O)C21 (stereo unspecified)	32	116	-2.8	3	93	i	0.98
c1nc(Nc2ccc(N3CCOCC3)cc2)c2ccsc2n1	.	.	.	.	102	i	0.96
O=C(Cn1nc(-c2ccc(F)cc2)ccc1=O)Nc1ccc(C(=O)NC2CC2)cc1	.	.	-3.3	1	95	i	0.91
CCc1ccc(C(=O)COC(=O)[C@@H](NC(N)=O)[C@@H](C)CC)cc1	18	139	.	-2	97	i	0.97
CC12CCC(=O)N1C(C(=O)OCC(=O)Nc1ccc(S(N)(=O)=O)cc1)CS2 (stereo unspecified)	.	.	-1.9	-5	101	i	1.1
O=S(=O)(Nc1cccc(-c2cn3cccnc3n2)c1)c1ccccc1	4	108	0.1	-10	24	i	0.97
